Bioassay records deposited in PubChem by National Center for Advancing Translational Sciences (NCATS).
LASV entry inh: qHTS for Inhibitors of binding or entry into cells for Lassa Virus; hit rate 1.2% among 300,000; AID 540256, 2011; Lassa virus pseudotype entry inhibition, cell reporter; control for the full effect not named in the record; Potency, µM (highest dose often 37.9 µM), without a hit: top-dose activity change, negative = inhibition, hits mostly inhibitors; active means well fitted inhibition curve with a large enough effect; inconclusive means small, poorly fitted or top-dose-only effect, or effect the other way; inactive means flat fitted curve, though single readings scatter; tested in HEK293 cells; note: % is set by controls: 0 for no effect and ±100 for the full control effect; nearly all actives have a fitted effect of over 50% in size; luciferase read-out
StopGo reporter: High Throughput Screening for Foot and Mouth Disease Virus Antivirals | human cells with a luciferase reporter of 2A StopGo recoding; control for the full effect not named in the record | Potency, µM (top dose mostly 57.9 µM), inactives show at the top dose signal change, negative = less light | hit rate 1.2% among 410,000 | AID 1159524, 2015; active = well fitted falling curve with a large enough effect; inconclusive = small, poorly fitted or top-dose-only effect; inactive = no such curve, though single readings can be large or run the other way; tested in HEK293T cells; note: % is set by controls: 0 for no effect and ±100 for the full control effect; nearly all actives have a fitted effect of over 45% in size; luciferase light after 4 h
Cruzain Triton: qHTS Assay for Promiscuous and Specific Inhibitors of Cruzain (with detergent); Cruzipain (Trypanosoma cruzi), P25779; purified cruzain, Z-FR-AMC fluorescence, 0.01% Triton; Potency, µM, without a hit: max response, negative = inhibition, actives largely listed as inhibitors; hit rate 0.43% among 200,000; AID 1478, 2009; active = well fitted curve in the direction sought with a large enough effect; inconclusive = small, poorly fitted or top-dose-only effect, or another doubt; inactive = no such curve, though single readings can be large; an effect the other way counts as inactive or inconclusive;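 note: plate controls were neutral wells for no effect and buffer without enzyme for full effect; nearly all actives have a fitted effect of over 40% in size; top concentration of the series not given in the record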
Target sequence (P25779 123-467 limits assumed): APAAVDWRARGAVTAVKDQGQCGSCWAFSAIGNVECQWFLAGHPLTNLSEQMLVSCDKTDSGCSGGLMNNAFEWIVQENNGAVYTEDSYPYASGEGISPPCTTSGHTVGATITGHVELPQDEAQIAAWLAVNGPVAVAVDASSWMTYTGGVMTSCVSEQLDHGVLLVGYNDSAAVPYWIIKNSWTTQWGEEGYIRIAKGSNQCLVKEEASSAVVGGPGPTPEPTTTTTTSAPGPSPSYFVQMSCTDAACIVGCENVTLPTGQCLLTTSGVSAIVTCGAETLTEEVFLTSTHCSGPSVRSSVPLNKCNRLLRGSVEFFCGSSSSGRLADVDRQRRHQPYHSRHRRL
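Detergent-containing run (0.01% Triton X-100) in acetate buffer pH 5.5 with 5 mM DTT: enzyme at 1.5 nM final, 15 min compound preincubation at room temperature, then 2 uM Z-FR-AMC substrate. Activity taken as 60 s fluorescence increase at 360/450 nm.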
NS1 function inh: qHTS Assay for Inhibitors of Influenza NS1 Protein Function | Potency, µM (titrated, usually from 46.1 µM), without a hit: top-dose activity, positive = more growth | AID 2326, 2010 | hit rate 0.4% among 270,000 | S. cerevisiae slowed by influenza A NS1, growth recovery by OD600; note: actives are rising curves; nearly all actives have a fitted effect of over 50% in size
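In this qHTS, NS1 from influenza A is expressed in budding yeast, where it slows growth. Cells are switched from glucose to 2% galactose medium (pH 6.0, -URA), treated with compound, and growth recovery is read at OD600.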
RE007 growth inh: qHTS Assay for Inhibitors of the HIV-1 protein Vpr; hit rate 0.21% among 360,000; AID 651644, 2012; Potency, µM (titrated, usually from 92.2 µM), inactives show top-dose activity change, negative = less growth; S. pombe RE007 Vpr strain, BacTiter-Glo ATP luminescence, 24 h; control for the full effect not named in the record; active = well fitted falling curve with a large enough effect; inconclusive = small, poorly fitted or top-dose-only effect; inactive = no such curve, though single readings can be large or run the other way;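 note: % is set by controls: 0 for no effect and ±100 for the full control effect; nearly all actives have a fitted effect of over 50% in size; the assay follows cell death caused by Vpr and the record does not say whether a fall means rescue or toxicity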
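Fission yeast strain RE007, carrying one chromosomally integrated HIV-1 vpr copy, was seeded at OD 0.01 in PMG+AL medium with 23 nL pinned compound. After 24 h at 30 °C and 99% humidity, viability was read by BacTiter-Glo luminescence.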
Cruzain noTriton: qHTS Assay for Promiscuous and Specific Inhibitors of Cruzain (without detergent). Cruzipain (Trypanosoma cruzi), P25779. purified cruzain, Z-FR-AMC fluorescence, no detergent. Potency, µM, without a hit: max response, negative = inhibition, hits mostly inhibitors. hit rate 2.3% among 200,000; active = well fitted curve in the direction sought with a large enough effect; inconclusive = small, poorly fitted or top-dose-only effect, or another doubt; inactive = no such curve, though single readings can be large; an effect the other way counts as inactive or inconclusive;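 note: plate controls were enzyme without inhibitor for no effect and buffer without enzyme for full effect; nearly all actives have a fitted effect of over 40% in size; top concentration of the series not given in the record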
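Detergent-free condition (0.00005% Triton X-100) in acetate buffer pH 5.5 with DTT. 1.5 nM enzyme and compound were pre-mixed 15 min, then 2 uM Z-FR-AMC substrate added; reaction progress from fluorescence change between first and third reads (60 s).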
Marburg entry inh: qHTS for inhibitors of binding or entry into cells for Marburg Virus; hit rate 1.8% among 300,000; Marburg virus pseudotyped entry inhibition, cell reporter; control for the full effect not named in the record; about a third of the inactives were read at about 46 µM; Potency, µM (highest dose often 37.8 µM), without a hit: at the top dose activity change, negative = inhibition, hits mostly inhibitors; active = well fitted inhibition curve with a large enough effect; inconclusive = small, poorly fitted or top-dose-only effect, or effect the other way; inactive = flat fitted curve, though single readings scatter; tested in HEK293 cells; about a fifth of its hits are not listed in these tables; note: % is set by controls: 0 for no effect and ±100 for the full control effect; luciferase read-out
SARS PLP yeast: qHTS of Yeast-based Assay for SARS-CoV PLP; AID 485353, 2010; S. cerevisiae expressing SARS-CoV PLpro, growth rescue; control for the full effect not named in the record; Potency, µM (series often up to 32.9 µM), inactives show at the top dose activity, positive = growth rescue; hit rate 0.19% among 330,000; note: 0% is about no effect; nearly all actives have a fitted effect of over 55% in size; growth read by luminescence after 48 h
Active calls of the source: *; ? = inconclusive; . = no result given; & = joins results of further samples; [ ] = another dose, or the depositor's remark. Unless noted, calls come from the whole dose curve; as a rule, active means well fitted rising curve with a large enough effect; inconclusive means small, poorly fitted or top-dose-only effect; inactive means no such curve, though single readings can be large or run the other way. Potency is the fitted concentration of half-maximal effect.

compound,LASV entry inh,StopGo reporter,Cruzain Triton,NS1 function inh,RE007 growth inh,Cruzain noTriton,Marburg entry inh,SARS PLP yeast
COCC(=O)N1CCCC(N(C)CCc2ccc(OC)c(OC)c2)C1 (stereo not drawn),.,11%,.,16%,-24%,.,.,12%
CC(=O)n1cc(/C=N/NC(N)=S)c2ccccc21,14%,-2%,.,.,4%,.,?,3%
C=CCn1c(-c2cccs2)nc2ccccc21,6%,-9%,3.6%,-32%,-27%,-5%,15%[46.1 µM],-9%
COc1ccccc1NC(=O)c1cnc(SC)nc1,.,22%,.,-4%,9%,.,.,-5%
CCn1c(SCC(=O)c2[nH]c(C)c(C(C)=O)c2C)nnc1-c1ccncc1,-1%,.,-3.7%,2%,-3%,-4%,2%,8%
Cc1cc(/C=C2\C(=O)NC(=O)N(c3cccc(F)c3)C2=O)c(C)n1-c1cc(C(=O)O)cc(C(=O)O)c1,1%,11%,.,5%,4%,.,?,2%
CN(C)c1cccc(C(=O)OCC(=O)Nc2ccccc2-c2ccccc2)c1,1%,?,-17%,-1%,-1%,0%,-23%,-10%
O=[N+]([O-])c1ccc(C(=S)N2CCN(c3ccc(F)cc3)CC2)cc1,-29%,?,.,1%,-19%,.,-28%[46.1 µM],0%
O=C(NCCS(=O)(=O)N1CCN(c2ccc(F)cc2)CC1)C1CC(=O)N(c2ccc(F)cc2)C1 (stereo not drawn),16%[46.1 µM],-7%,0.2%,.,.,-3%,.,.
CC1(C)CC(N(Cc2ccc(F)cc2)C(=O)c2ccc(F)cc2)CCO1 (stereo not drawn),-7%,-2%,.,1%,-14%,.,-6%[46.1 µM],-1%
Cn1c(=O)c(C(=O)CN2CCOCC2)c(N)n(Cc2ccccc2)c1=O,-3%,-4%,5.0%,-6%,-10%,-7%,13%,-3%
O=C(CN1C(=O)C2C3CCC(C3)C2C1=O)N1CCN(Cc2ccccc2)CC1 (stereo not drawn),0%,-7%,.,-8%,6%,.,17%[46.1 µM],0%
COCCn1c(=S)[nH]c2cc(C(=O)NCCc3ccc(OC)c(OC)c3)ccc2c1=O,26%,16%,-1.6%,5%,-2%,21%,5%,-5%
Cn1c2c(c(=O)n(C)c1=O)C(c1ccccc1Cl)C(C#N)=C(N)O2 (stereo not drawn),.,-23%,.,1%,9%,.,.,-2%
O=C(COC(=O)c1cc(=O)[nH]c2ccccc12)Nc1nc(-c2cccc(Br)c2)cs1,?,-21%,-1.4%,20%,-2%,16µM*,?,-8%
COc1ccc2[nH]c(C(O)(Cc3cccnc3)Cc3cccnc3)cc2c1,-1%,-13%,-1.3%,-5%,2%,2%,-4%,12%
COc1ccc(CNC(=O)Nc2ccc3c(c2)N(C)C(=O)c2ccccc2S3)cc1,23%[46.1 µM],-17%,-2.8%,.,.,4%,-8%[46.1 µM],.
COc1ccccc1C(=O)NCCNC(=O)c1ccco1,12%,-1%,-1.5%,7%,0%,23%,7%,-14%
Cc1ccc(C(=O)NCC(c2ccco2)S(=O)(=O)c2ccc(Cl)cc2)cc1C (stereo not drawn),-2%[46.1 µM],-29%,-2.6%,.,.,-13%,.,.
Cc1ccc(S(=O)(=O)N(CC(=O)NCc2cccs2)c2ccccc2)cc1,-22%,0%,.,.,6%,.,?,-1%
O=C(C1=C[C@@H](C2CCCCC2)C[C@@H](OCCCCO)O1)N1CCOCC1,.,0%,.,0%,9%,.,.,0%
Cc1occc1-c1nnc(SCC(=O)N2CCCCC2)o1,3%[46.1 µM],8%,.,.,1%,.,?,0%
CC1=C(C)/C(=N\OS(=O)(=O)c2ccccc2)C=CC1=O,?,11µM*,5.0%,-249%,7.9µM*,3%,7.9µM*,-50%
N#Cc1ccccc1Sc1ccccc1N,13%,18%,-6.6%,-11%,0%,-2%,?,-8%
Cc1ccc(NC(=O)CCN2C(=O)c3ccccc3S2(=O)=O)cc1F,8%,8%,.,.,?,.,?,-4%
O=C1C(=Nc2cccc(Cl)c2)CC(c2ccc(Cl)cc2)N1c1cccc(Cl)c1 (stereo not drawn),.,-24%,.,7%,-5%,.,.,1%
COc1ccc(N/C(C)=C2/C(=O)C(=O)N(CCO)C2c2ccc([N+](=O)[O-])cc2)cc1 (stereo not drawn),-14%,-16%,1.0%,-10%,13%,-11%,1%,6%
COc1ccc(CNC(=O)Cc2ccc(NC(=O)N3CCSc4ncccc43)cc2)cc1,-1%[46.1 µM],-14%,-8.7%,.,.,-12%,.,.
O=C(O)c1cccc(COc2ccccc2Cl)c1,0.52µM*,1.4µM*,0.2%,-91%,-10%,-4%,0.41µM*,-14%
CCOC(=O)c1ccccc1NC(=O)c1cccnc1,5%,-13%,-3.2%,-14%,-13%,4%,15%,-25%

Individual results from the entries so far.
Reading for COc1ccc2[nH]c(C(O)(Cc3cccnc3)Cc3cccnc3)cc2c1 under SARS PLP yeast: 12%
Reading for O=C(C1=C[C@@H](C2CCCCC2)C[C@@H](OCCCCO)O1)N1CCOCC1 under SARS PLP yeast: 0%

Reformatted: 2 of the compounds above.
Each structure is followed by: LASV entry inh | StopGo reporter | Cruzain Triton | NS1 function inh | RE007 growth inh | Cruzain noTriton | Marburg entry inh | SARS PLP yeast
C=CCn1c(-c2cccs2)nc2ccccc21
    6% | -9% | 3.6% | -32% | -27% | -5% | 15%[46.1 µM] | -9%
COc1ccccc1NC(=O)c1cnc(SC)nc1
    . | 22% | . | -4% | 9% | . | . | -5%

More entries.
compound,LASV entry inh,StopGo reporter,Cruzain Triton,NS1 function inh,RE007 growth inh,Cruzain noTriton,Marburg entry inh,SARS PLP yeast
CC1CCC(NC(=O)COC(=O)C2CC3CCCC(C2)C3=O)CC1 (stereo not drawn),-3%,-21%,.,.,?,.,?,1%
N/C(COc1ncn(-c2ccccc2)n1)=N\S(=O)(=O)c1ccc(Cl)cc1Cl,-10%[46.1 µM],-2%,.,3%,-11%,.,1%[46.1 µM],3%
CC(=O)N1c2ccc(S(=O)(=O)NCCC(=O)N(C)Cc3ccccc3)cc2CC1C (stereo not drawn),0%[46.1 µM],18%&-11%,0.4%,-4%,-2%,-1%,.,-7%
O=C(c1ccc(Br)o1)N(Cc1ccccc1)c1ccccn1,0%,-9%,2.8%,-8%,-27%,1%,13%,-1%
O=C(CCCNC(=O)c1ccc(Cl)cc1)Nc1ccc(S(=O)(=O)Nc2ncccn2)cc1,.,-13%,.,-1%,-5%,.,.,-1%
CCN1CCN(C(=O)c2ccc3c(=O)n(Cc4ccccc4OC)c(=S)[nH]c3c2)CC1,0%,-24%,3.9%,0%,-2%,-8%,2%,2%
CCOc1ccc(C(=O)Nc2cccc(NC(=O)c3cccs3)c2)cc1[N+](=O)[O-],-23%,-9%,-5.1%,8%,-1%,-25%,-35%,1%
CCC(CC)c1nnc(NC(=O)c2ccc(N3CCCC3=O)cc2)s1,-2%,34%[activator],-0.9%,4%,5%,-2%,?,3%
NS(=O)(=O)c1ccc(NC(=O)COc2ncnc3c2cnn3-c2ccccc2)cc1,.,-6%,.,18%,-7%,.,.,0%
Cc1cc(C)cc(NC(=O)c2cnn(-c3ccc(C)c(C)c3)c2C2CCNCC2)c1,?,-17%,-1.4%,.,.,-3%,.,.
CN1CCN(c2ccc(CNS(=O)(=O)Cc3ccc(Cl)cc3)cc2)CC1,.,28%,.,5%,-12%,.,.,-2%
CCOC(=O)c1oc2ccccc2c1NC(=O)c1cccc(OC)c1,-29%,?,-9.5%,-51%,-8%,1%,6%,-13%
CCCCCn1c(=O)c(C(=O)Nc2ccccc2)c(O)c2ccccc21,.,24%,.,10%,-5%,.,.,0%
COc1cccc(C(=O)NCC(=O)OCc2cc(=O)n3ccsc3n2)c1,2%[46.1 µM],-7%,-1.7%,.,.,-1%,.,.
c1ccc(CCc2nn3c(-c4ccncc4)nnc3s2)cc1,-17%,.,1.9%,-34%,23%,-11%,?,-7%
CCc1cc(C(=O)Nc2ccc(S(=O)(=O)NC3=NCCCCC3)cc2)sc1C,7%,-8%,.,.,2%,.,14%[46.1 µM],-3%
S=c1[nH]c2ccccc2c2ccccc12,.,-3%,.,-39%,2%,.,.,3%
O=C(Nc1ccc2c(c1)OCO2)c1sc2cc(Cl)ccc2c1Cl,14%,2%,-5.2%,-2%,-6%,10µM*,7%,-12%
COc1cc(C2NC(=O)NC(C)=C2C(=O)NCc2ccccc2)c(Cl)cc1O (stereo not drawn),-1%,.,2.7%,11%,-2%,-4%,2%,7%
CC(C(=O)OCC(=O)Nc1ccc2c(c1)OCO2)N1C(=O)c2ccccc2C1=O (stereo not drawn),14%,-11%,-1.2%,-73%,6%,-16%,7%,16%
CCOc1ccccc1NC(=O)CNS(=O)(=O)c1ccc2nc(C)sc2c1,-26%[46.1 µM],10%,.,.,14%,.,?,3%
O=C(CN1CCN(c2ccc(O)cc2)CC1)Nc1cc(S(=O)(=O)N2CCCCC2)ccc1Cl,-26%,0%,.,.,-8%,.,-26%[46.1 µM],0%
